Source: PubChem BioAssay (National Center for Advancing Translational Sciences (NCATS))
TSHR agonist: activates the human thyroid stimulating hormone receptor. P16473. actives 0.48% (n = 73,000). HEK293-CNG-TSHR cells (CNG channel as cAMP sensor), membrane potential dye, cAMP. Potency, µM (highest dose often 57.1 µM), for the others: at the highest dose activation, usual class: activators; active = well fitted activation curve of enough size with the parental cells flat; inconclusive = any curve in the parental cells; inactive = parental cells flat and receptor cells flat or falling; further: potency means the concentration at half of the fitted maximal effect; % of control where 0% means no effect; weak receptor curves with flat parental cells got no call and are not listed
Target sequence (P16473 whole entry, looked up): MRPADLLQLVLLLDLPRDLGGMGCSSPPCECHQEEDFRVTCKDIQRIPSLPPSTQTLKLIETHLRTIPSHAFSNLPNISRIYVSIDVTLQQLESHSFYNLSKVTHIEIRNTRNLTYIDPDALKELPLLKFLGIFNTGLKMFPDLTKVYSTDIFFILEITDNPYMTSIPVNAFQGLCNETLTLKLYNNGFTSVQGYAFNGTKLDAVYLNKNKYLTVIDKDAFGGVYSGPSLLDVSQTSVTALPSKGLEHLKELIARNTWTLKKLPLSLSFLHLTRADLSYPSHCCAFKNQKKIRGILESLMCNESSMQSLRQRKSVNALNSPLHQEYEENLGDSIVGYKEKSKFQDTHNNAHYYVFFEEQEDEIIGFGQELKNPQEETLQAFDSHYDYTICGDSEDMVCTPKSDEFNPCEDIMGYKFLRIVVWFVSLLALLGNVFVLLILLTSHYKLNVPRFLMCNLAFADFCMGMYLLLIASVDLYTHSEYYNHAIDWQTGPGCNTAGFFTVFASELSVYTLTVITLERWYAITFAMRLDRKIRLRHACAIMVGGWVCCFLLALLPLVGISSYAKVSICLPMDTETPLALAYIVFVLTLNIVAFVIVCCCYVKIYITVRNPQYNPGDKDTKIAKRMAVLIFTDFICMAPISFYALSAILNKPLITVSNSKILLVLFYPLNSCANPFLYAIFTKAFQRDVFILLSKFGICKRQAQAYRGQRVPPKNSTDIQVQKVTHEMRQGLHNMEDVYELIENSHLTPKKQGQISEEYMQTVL
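HEK 293 cells stably expressing TSHR and a modified CNG channel, with CNG-only parental cells as counterscreen, were preloaded 60 min at room temperature with membrane potential dye containing 100 uM RO 20-1724. Compound exposure was 30 min, and depolarization was read as fluorescence at 590 nm.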
A647 autofl: compound autofluorescence in A647 spectral region; 59,000 tested, under 10 active; max dye-equivalent concentration, M; Compound fluorescence, A647 channel (570/671 nm), Tris buffer; active means above 1 µM dye equivalent; inconclusive means 0.1 to 1 µM; inactive means 0.1 µM or less;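 further: values scaled relative to a standard on each plate; highest value over a series up to 38 µM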
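Tris 100 mM pH 8.0; cpd + A647 stds pin-transferred; 15 min RT; CCD imager, ex 570/em 671. Output = A647-equivalent conc. per cpd conc.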
Resorufin fluor: compound fluoresces in the resorufin spectral region; max dye-equivalent concentration, M; actives 0.04% (n = 59,000); Compound fluorescence, resorufin region 547/598 nm, buffer; active compounds read high; active = above 10 nM dye equivalent; inconclusive = 1 to 10 nM; inactive = 1 nM or less; a few of its hits are not listed in these tables; further: highest value over a series up to 38 µM
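Compounds in 100 mM Tris, pH 8.0, incubated 15 min at room temperature, then fluorescence read at 547 nm excitation/598 nm emission. Signal converted to dye-equivalent concentration via an on-plate six-point resorufin standard curve, per compound concentration.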
AID923: qHTS Assay for Allosteric/Competitive Inhibitors of Caspase-1: Spectroscopic Profiling in AFC Spectral Region; compound fluorescence, AFC spectral region (405/520 nm); almost no hit is shown here; Potency, µM (titrated, usually from 57.5 µM), for inactives: top-dose fluorescence increase, actives largely listed as activators; actives 1.1% (n = 75,000); active means well fitted activation curve with a large enough effect; inconclusive means small, poorly fitted or top-dose-only effect;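 further: potency means the concentration at half of the fitted maximal effect; 0% is about no effect; scaled to a free AFC standard on each plate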
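Titrations up to 57 uM read every 20 sec for 3 min (405/520 nm) with 50 nM caspase 1 and 5 uM Ac-WEHD-AFC, pH 7.5 HEPES buffer. Fluorescence-vs-time intercept gave baseline, scaled against on-plate AFC standard.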
A488 fluor: compound fluoresces in the A488 spectral region | compound autofluorescence, A488 spectral region, dye equivalency; active compounds read high | max dye equivalency, M | actives 0.1% (n = 59,000) | AID 591; active = above 10 nM dye equivalent; inconclusive = 1 to 10 nM; inactive = 1 nM or less; about half of its hits are not listed in these tables;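 further: highest value over a series up to 38 µM; compound alone in buffer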
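Spectroscopic profiling in the A488 region: compounds in pH 8.0 Tris (100 mM), 15 min RT, CCD imaging with 480 nm excitation and 540 nm emission; responses normalized against A488 dye standards.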
* hit, by the source's call; [ ] = dose if it differs, or a comment. This is a subset; count on the stated rates, not on these rows.

For Cc1cc(C)n(-c2nnc(C)n2NS(=O)(=O)c2ccc(F)cc2)n1 the results were TSHR agonist 0.3%, A647 autofl 4.3e-09, Resorufin fluor inactive, AID923 -1.5% and A488 fluor inactive.
O=C(NCC(c1cccs1)N1CCOCC1)c1ccc(Cl)s1 (configuration not stated) was read as TSHR agonist inconclusive, A647 autofl 2.9e-09, Resorufin fluor inactive, AID923 0.1% and A488 fluor inactive.
`CCOC(=O)c1sc(NC(=O)c2cccs2)cc1C` gave TSHR agonist 19.1%, A647 autofl 1e-09, Resorufin fluor inactive, AID923 17.4% and A488 fluor inactive.
For Cc1cccc(N(CC(=O)Nc2c(C)n(C)n(-c3ccccc3)c2=O)S(C)(=O)=O)c1C the results were TSHR agonist -6.4%[11.4 µM] and AID923 -1.0%.
Screening Cc1ccc(NC(=O)COC(=O)Cn2c(C)csc2=O)cc1 returned TSHR agonist -4.4%[11.4 µM], A647 autofl 3.2e-09, Resorufin fluor inactive, AID923 -0.8% and A488 fluor inactive.
Cc1cc(NC(=O)CSc2nc(C3CCCCC3)nc3ccccc23)no1 was read as TSHR agonist -7.5%, A647 autofl 1.3e-09, Resorufin fluor inactive, AID923 -0.2% and A488 fluor inactive.
Screening Cc1cc(C)cc(OCC(=O)NCCN2CCOCC2)c1 returned TSHR agonist 0.8%, A647 autofl 1e-09, Resorufin fluor inactive, AID923 -0.2% and A488 fluor inactive.
Screening CCCCOC(=O)n1ccc(C(=O)Nc2ccccc2OC)n1 returned TSHR agonist 14.0%, A647 autofl 6.9e-09, Resorufin fluor inactive, AID923 1.1% and A488 fluor inactive.
`Cc1cccc(-n2c(O)c(C=Nc3c(C)n(C)n(-c4ccccc4)c3=O)c3ccccc3c2=O)n1` gave TSHR agonist -6.7%, A647 autofl 1e-09, Resorufin fluor inactive, AID923 12.6% and A488 fluor inconclusive.
Screening CCN1C(=O)CC(N2CCC(C(=O)N3CCOCC3)CC2)C1=O (configuration not stated) returned TSHR agonist -1.9%, A647 autofl 2e-09, Resorufin fluor inactive, AID923 -0.1% and A488 fluor inactive.
Screening Cn1c(OCc2ccc3c(c2)OCO3)nc2c1c(=O)n(Cc1cccc(Cl)c1)c(=O)n2C returned A647 autofl 4.46e-08, Resorufin fluor inactive and A488 fluor inactive.
`CCOC(=O)c1nnn(-c2nonc2NC(C)=O)c1C` gave TSHR agonist 17.2%[11.4 µM], A647 autofl 2.15e-08, Resorufin fluor inactive, AID923 -1.8% and A488 fluor inactive.
`CCCCC[C@H](O)/C=C/C1=C(CCCCCCC(=O)O)C(=O)CC1` gave A647 autofl 1e-09, Resorufin fluor inactive and A488 fluor inactive.
For COc1ncc2nc(C)c(=O)n(C)c2n1 the results were TSHR agonist 11.7%, A647 autofl 2.7e-09, Resorufin fluor inactive, AID923 2.4% and A488 fluor inactive.
For O=S(=O)(c1ccc(N2CCN(S(=O)(=O)c3ccc4c(c3)OCCO4)CC2)nc1)N1CCCC1 the results were TSHR agonist -2.8%, A647 autofl 1.39e-08, Resorufin fluor inactive, AID923 -0.1% and A488 fluor inactive.
Screening CO[C@@H]1C[C@H](O[C@H]2[C@@H](C)[C@H](O[C@@H]3O[C@@H](C)C[C@@H](N(C)C)[C@@H]3OC(C)=O)[C@H](C)C[C@]3(CO3)C(=O)[C@H](C)[C@H](OC(C)=O)[C@H](C)[C@H](C)OC(=O)[C@@H]2C)O[C@H](C)[C@@H]1OC(C)=O returned TSHR agonist -13.2%[25.6 µM], A647 autofl 1e-09, Resorufin fluor inactive, AID923 0.6%[25.7 µM] and A488 fluor inactive.
Screening C=CCn1c(SCc2ccc(Cl)cc2)nc2c1c(=O)[nH]c(=O)n2C returned TSHR agonist 27.0%, A647 autofl 1.9e-09, Resorufin fluor inactive, AID923 0.2% and A488 fluor inactive.
COC(=O)c1cc2ccsc2n1CC(=O)Nc1ccc(N(C)C)cc1 was read as TSHR agonist 1.1%[11.4 µM], A647 autofl 2.52e-08, Resorufin fluor inactive, AID923 2.4% and A488 fluor inactive.
For COc1ccc(N(CC(=O)Nc2ccc(C)c(C)c2)S(=O)(=O)c2c(C)n[nH]c2C)cc1 the results were TSHR agonist 18.6%, A647 autofl 1e-09, Resorufin fluor inactive, AID923 -1.0% and A488 fluor inactive.
For O=C(COC(=O)Cc1ccsc1)NC1CCCCCC1 the results were TSHR agonist -0.7%, A647 autofl 3.3e-09, Resorufin fluor inactive, AID923 -1.0% and A488 fluor inactive.
`Cc1ccc(S(=O)(=O)N2CCCC2C(=O)NCc2ccco2)cc1` (configuration not stated) gave TSHR agonist 12.6µM*, A647 autofl 7.5e-09, Resorufin fluor inactive, AID923 0.5% and A488 fluor inactive.
Screening c1ccc(-c2nn3c(-c4ccco4)nnc3s2)nc1 returned TSHR agonist 4.0%, A647 autofl 1.14e-08, Resorufin fluor inactive, AID923 -1.0% and A488 fluor inactive.
For CN1CCN(CCc2ccc(Cl)c(Cl)c2)CC1 the results were TSHR agonist 9.0% and AID923 -2.3%.
COC(=O)CN(C(=O)CSc1nnc(-c2cccc(OC)c2)o1)c1ccc(OC)cc1 was read as TSHR agonist inconclusive, A647 autofl 7.2e-08, Resorufin fluor inactive, AID923 2.5% and A488 fluor inactive.
For CCN1C(=O)/C(=C\N2CCN(C)CC2)SC1=S the results were TSHR agonist -0.2%, A647 autofl 1e-09, Resorufin fluor inactive, AID923 1.2% and A488 fluor inactive.
`O=c1c2[nH]c3ccc(Cl)cc3c2ncn1Cc1ccccn1` gave TSHR agonist -2.2%, A647 autofl 1e-09, Resorufin fluor inactive, AID923 -0.1% and A488 fluor inactive.
Screening Nc1nc(C2C(=O)CCCC2=O)cs1 returned TSHR agonist 4.7%, A647 autofl 4.92e-08, Resorufin fluor inactive, AID923 7.4% and A488 fluor inactive.
Screening CC(=O)c1ccc(-c2nc3ccccc3n2C)o1 returned TSHR agonist 18.2%, A647 autofl 3.8e-09, Resorufin fluor inactive, AID923 -0.6% and A488 fluor inactive.
O=C(Nc1nc2ccccc2n1CCN1CCOCC1)c1cn(-c2ccccc2)nc1-c1ccccc1 was read as TSHR agonist inconclusive, A647 autofl 6.6e-09, Resorufin fluor inactive, AID923 0.4% and A488 fluor inactive.
COCCn1c(-c2ccccc2)nc2oc3ccccc3c(=O)c2c1=O was read as TSHR agonist 4.8%, A647 autofl 1e-09, Resorufin fluor inactive, AID923 -2.2% and A488 fluor inactive.

A draw from above in order of count of non-hydrogen atoms, lowest first:
Screening Cc1ccc(NC(=O)COC(=O)Cn2c(C)csc2=O)cc1 returned TSHR agonist -4.4%[11.4 µM], A647 autofl 3.2e-09, Resorufin fluor inactive, AID923 -0.8% and A488 fluor inactive.
`Cc1ccc(S(=O)(=O)N2CCCC2C(=O)NCc2ccco2)cc1` (configuration not stated) gave TSHR agonist 12.6µM*, A647 autofl 7.5e-09, Resorufin fluor inactive, AID923 0.5% and A488 fluor inactive.
O=C(Nc1nc2ccccc2n1CCN1CCOCC1)c1cn(-c2ccccc2)nc1-c1ccccc1 was read as TSHR agonist inconclusive, A647 autofl 6.6e-09, Resorufin fluor inactive, AID923 0.4% and A488 fluor inactive.

(listing goes on)
For O=C(Cc1nn[nH]n1)NCc1ccccc1Cl the results were TSHR agonist -5.5%, A647 autofl 4.89e-08, Resorufin fluor inactive, AID923 -1.8% and A488 fluor inactive.
Screening O=C(NCc1ccncc1)c1ccc(Cl)c(S(=O)(=O)N2CCOCC2)c1 returned TSHR agonist -4.0%, A647 autofl 3.58e-08, Resorufin fluor inactive, AID923 1.7% and A488 fluor inactive.
CC1NC(=O)NC1CCCCC(=O)O (configuration not stated) was read as TSHR agonist -8.3% and AID923 -2.5%.
For CC1CCC(C(=O)NC(C(=O)N2CCN(c3ccccn3)CC2)C(C)C)CC1 (configuration not stated) the results were TSHR agonist inconclusive, A647 autofl 4.39e-08, Resorufin fluor inactive, AID923 0.5% and A488 fluor inactive.
Screening Cc1noc(C)c1C(=O)N1CCC2(CC1)CCN(C(c1ccccc1)c1ccccc1)CC2 returned TSHR agonist 31.6µM*, A647 autofl 1.93e-08, Resorufin fluor inactive, AID923 -1.2% and A488 fluor inactive.
Screening CCCOC(=O)c1ccc(NC(=O)CCC(=O)OCC)cc1 returned TSHR agonist 0.1%[11.4 µM] and AID923 -0.4%.
For O=C1[C@@H]2[C@H](C(=O)N1n1cnnc1)[C@H]1C=C[C@@H]2C1 the results were A647 autofl 3.1e-09, Resorufin fluor inactive and A488 fluor inactive.
For Cc1c(N(C)CS(=O)(=O)O)c(=O)n(-c2ccccc2)n1C the results were TSHR agonist -0.7%[25.6 µM], A647 autofl 2.6e-09, Resorufin fluor inactive, AID923 -0.7% and A488 fluor inactive.
`CCN(CC)C(=O)CSc1nnc(-c2ccc(F)cc2)n1N` gave TSHR agonist 0.1%, A647 autofl 1e-09, Resorufin fluor inactive, AID923 0.1% and A488 fluor inactive.
CC1(c2ccco2)NC(=O)NC1=O (configuration not stated) was read as A647 autofl 1e-09, Resorufin fluor inactive and A488 fluor inactive.
COc1ccc(N2C(=O)CN=C2Nc2cccc(C)c2C)cc1OC was read as TSHR agonist -2.4%, A647 autofl 1e-09, Resorufin fluor inactive, AID923 3.5% and A488 fluor inactive.
Screening C/C(=C1/SC(N2CCCC2)=NC1=O)c1ccc(Br)cc1 returned TSHR agonist 16.6%, A647 autofl 1.86e-08, Resorufin fluor inactive, AID923 0.3% and A488 fluor inactive.
CCOC(=O)C1=C(C)Nc2nnnn2C1c1c[nH]c2ccccc12 (configuration not stated) was read as TSHR agonist 0.4%, A647 autofl 6.3e-09, Resorufin fluor inactive, AID923 -2.5% and A488 fluor inactive.
Screening COc1ccc(-c2nc(C#N)c(NCCCN(C)C)o2)cc1OC returned TSHR agonist 4.7%, A647 autofl 1.74e-08, Resorufin fluor inactive, AID923 0.7% and A488 fluor inactive.
CCC(Sc1nccn1C)C(=O)Nc1nnc(C)s1 (configuration not stated) was read as TSHR agonist -8.7% and AID923 -1.4%.
Cc1ccc(C)c(/C(O)=C2\C(=O)C(=O)N(CCCN3CCOCC3)C2c2cccnc2)c1 (configuration not stated) was read as TSHR agonist -1.3% and AID923 0.3%.
`CCc1ccccc1NC(=O)N[C@@H](C)C(=O)O` gave TSHR agonist 20.4%, A647 autofl 1e-09, Resorufin fluor inactive, AID923 0.9% and A488 fluor inactive.
`Cc1csc(NC(=O)c2cnc3ccccn3c2=O)n1` gave TSHR agonist 6.1% and AID923 3.0%.
For COc1ccc(CCN2CC(C(=O)O)CC2=O)cc1 (configuration not stated) the results were TSHR agonist 4.6%, A647 autofl 1.8e-08, Resorufin fluor inactive, AID923 -0.2% and A488 fluor inactive.
`CC1(C)CC(=O)c2sc(NC(=O)CN3CCOCC3)nc2C1` gave TSHR agonist -1.5%, A647 autofl 1e-09, Resorufin fluor inactive, AID923 1.6% and A488 fluor inactive.
For CN1CCCN(C(=O)c2ccc(Cl)c(S(=O)(=O)N(C)c3ccccc3)c2)CC1 the results were TSHR agonist 4.9%, A647 autofl 2.68e-08, Resorufin fluor inactive, AID923 0.9% and A488 fluor inactive.
`O=C(c1ccco1)N1CCN(c2nc3ccsc3c(=O)s2)CC1` gave TSHR agonist 5.3% and AID923 1.3%.
`COc1cc(C(=O)N2CCN(C(=O)C3CC3)CC2)cc(OC)c1OC` gave TSHR agonist -3.8%, A647 autofl 1.99e-08, Resorufin fluor inactive, AID923 -1.3% and A488 fluor inactive.
Screening Cn1c(=O)[nH]c(=O)c2c1nc(NCc1ccco1)n2CCCc1ccccc1 returned TSHR agonist -6.7%, A647 autofl 6.2e-09, Resorufin fluor inactive, AID923 2.2% and A488 fluor inactive.
Screening Cn1cccc1C(=O)NC(=O)CSc1nnc(C2CC2)n1-c1ccccc1 returned TSHR agonist 8.4%, A647 autofl 1e-09, Resorufin fluor inactive, AID923 0.6% and A488 fluor inactive.
For Cc1ccc(CCNC(=O)C2CCN(S(=O)(=O)c3c(C)nn(C)c3C)CC2)cc1 the results were TSHR agonist 1.1% and AID923 1.8%.
